HCMV UL50-53 inh – disrupts HCMV UL50-UL53 complex binding | HTRF UL50-UL53 interaction, normalized percent inhibition | 190,000 compounds, 0.15% hits | inhibition, % (concentration not given with the values) | AID 1918969;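 active = both replicates at 50% or more, plus weaker picks with an unusually low signal ratio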;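 also: stock transfer was 100 nL into about 20 µL; 0% = negative control wells and 100% = wells with untagged competitor protein; inactives centre near -12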
Sa growth inh – inhibitors of Staphylococcus aureus growth at 42 °C; 170,000 compounds, 0.53% hits; relative growth, % (no concentration beside the values); S. aureus RN4220 growth, OD600, 20 h; stronger effect = lower value;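 active = growth at 42 °C up to 50% and 20 or more points under that at 30 °C, or under 10% at both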;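 also: 300 nL library stock went into each well; scaled to the means of positive and negative controls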
GIV-Gai inh – GIV-Galpha-i interaction inhibition; P08753; percent of control (FP), % (test concentration not listed); AID 1224905; Galpha-i3/FITC-GIV peptide fluorescence polarization, 90 min; stronger effect = lower value; scaled: aluminum fluoride 0%, vehicle 100%; 210,000 compounds, 0.42% hits;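 active = replicate mean at 85% of control or lower, very high polarization wells dropped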;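 also: wells of about 15 µL received 100 nL stock; the first replicate is given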
Target sequence (P08753 whole entry, looked up): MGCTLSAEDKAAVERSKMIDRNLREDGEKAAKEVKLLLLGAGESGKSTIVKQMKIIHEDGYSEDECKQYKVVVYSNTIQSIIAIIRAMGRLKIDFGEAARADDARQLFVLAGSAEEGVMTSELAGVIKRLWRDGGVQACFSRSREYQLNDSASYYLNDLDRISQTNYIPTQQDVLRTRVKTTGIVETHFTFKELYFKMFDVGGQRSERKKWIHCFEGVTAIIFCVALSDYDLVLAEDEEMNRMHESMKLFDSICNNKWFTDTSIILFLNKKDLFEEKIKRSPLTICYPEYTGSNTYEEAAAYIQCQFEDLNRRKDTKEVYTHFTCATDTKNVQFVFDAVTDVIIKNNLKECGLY
Sa growth inh second temp – recorded beside Sa growth inh, whose call it bears; relative growth, %; measured here: growth at 30 °C;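 optical density after 20 h as mean of two plates; 100% = untreated growth and lower means inhibition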
Starred values were filed as active, the others as inactive; x = no result given; & = joins results of further samples.

smiles | HCMV UL50-53 inh | Sa growth inh | Sa growth inh second temp | GIV-Gai inh
COc1ccccc1N1CCN(C(=O)C(C)N(c2ccccc2)S(C)(=O)=O)CC1 (stereo not drawn) | -19 | x | x | 99
Cc1nn(-c2ccccc2)c2sc(C(=O)OCC#N)cc12 | -11 | 93 | 90 | x
Cc1ccc(C2=NS(=O)(=O)N(C)C(C(=O)N3CCc4ccccc4C3)=C2)cc1 | x | 131 | 106 | 108
CCOC(=O)c1ccc(NC2=CC(c3ccc(F)cc3)N(c3ccc(C(=O)OCC)cc3)C2=O)cc1 (stereo not drawn) | -6 | 101 | 91 | 105
O=C(CSc1nc2ccccc2nc1N1CCCC1)Nc1ccc(F)cc1 | -7 | 103 | 98 | 102
CCc1ccc(-n2c(SC(CC)C(=O)N(CC)CC)nc3n[nH]c(C)c3c2=N)cc1 (stereo not drawn) | x | 109 | 87 | 99
COC(=O)Cn1c(CCS(=O)(=O)c2ccc(Cl)cc2)nc2ccccc21 | x | 98 | 82 | 100
CCOc1ccc(CNC(=O)c2cnc3sc(N(CC)CC)nn3c2=O)cc1OC | x | 88 | 89 | 105
COC(=O)c1ccc(NC(=O)CNc2cc(Cl)ccc2OC)cc1 | -4 | 81 | 85 | 94
Cc1ccc(-c2nc(S(=O)(=O)c3ccccc3)c(SCC(=O)NC3CCCCC3)o2)cc1 | 8 | 94 | 97 | 109
C/C(N)=C(/C#N)C(=O)CSc1nc(N)cc(=O)[nH]1 | -2 | 75 | 91 | x
CCN1C(=O)c2ccccc2S(=O)c2ccc(C(=O)NCCc3ccc(C)cc3)cc21 (stereo not drawn) | 3 | 118 | 83 | 104
COc1ccc2[nH]c(=O)c(CN(CCCN3CCOCC3)C(=O)Nc3ccccc3)cc2c1 | -15 | 95 | 79 | 98
N#CC1=C(S)N(c2ccccc2)C2(CCCCC2)NC1=O | -4 | 94 | 87 | 103
S=c1[nH]ncn1NCc1cccc(Br)c1 | -5 | 103 | 85 | 96
CCOC(=O)N1CCN(Cc2nc3cc(NC(=O)c4ccc([N+](=O)[O-])cc4)ccc3n2C(C)C)CC1 | -46 | 97 | 38 | 105
O=C(Nc1cc(-c2nc3cc(Cl)ccc3o2)ccc1Cl)c1cccc2ccccc12 | 2 | 96 | 85 | 107
CCOC(=O)c1sc(C)nc1C(F)(F)F | -9 | x | x | 99
CCOC(=O)c1nn(-c2ccc(F)cc2)c(=O)c2c(NC(=O)c3ccc(Br)o3)scc12 | 13 | 104 | 108 | 97
COC(=O)C1=C(C)NC(C)=C(C(=O)c2ccccc2)C1c1ccc(Br)cc1 (stereo not drawn) | -31 | 120 | 81 | x
Cc1ccc(/C=C/C2=Cc3c(sc(N)c3C#N)C(C)(C)C2)o1 | -18 | 87 | 60 | x
CCCSc1nc2c3ccccc3ncn2n1 | 5 | 95 | 95 | x
CN(C1CCCCC1)S(=O)(=O)c1cc(Br)cc2c1N(C(=O)C1CC1)CC2 | x | 90 | 79 | 104
CCN(CC)c1ccc(C(=O)OCC(=O)N(C)Cc2ccccc2)cc1 | -4 | 88 | 94 | x
CCNC(=O)Cn1nc(C)n2c(cc3c(OC)cccc32)c1=O | -43 | 105 | 85 | 97
CCc1ccccc1NC(=O)CSC1=Nc2ccccc2C2=NC(Cc3ccccc3)C(=O)N12 (stereo not drawn) | x | 107 | 85 | 98
Cc1cc(=O)cc(C(F)(F)F)o1 | -19 | 103 | 89 | x
CC1c2ccsc2CCN1C(=O)c1ccc(C(F)(F)F)cc1 (stereo not drawn) | -30 | 107 | 92 | 106
O=C1CCN(Cc2ccccc2)C(=O)N1c1ccc2c(c1)CCO2 | -13 | 96 | 97 | 101
CCCN(C(=O)CC)c1nc(-c2ccccc2)cs1 | -11 | 69 | 64 | 104
CCOCCCn1c(SCC(=O)NCCCOC)nc2c(sc3ccccc32)c1=O | x | 106 | 100 | 103
O=C(Cn1cnc2ccccc2c1=O)OCC(=O)N1CCOCC1 | -6 | 104 | 103 | x
Cc1cn(C2CCC(CO)O2)c(=O)[nH]c1=O (stereo not drawn) | x | 99 | 99 | 101
Cc1ccc(-c2nc3ccccc3s2)cc1NC(=O)c1sc2ccccc2c1Cl | -11 | x | x | 103
CCc1ccc(NC(=O)Cn2c(=O)c(CNc3ccccc3)cc3cc(OC)c(OC)cc32)cc1 | x | 91 | 90 | 103
COc1ccc(N2C(=O)CCS2(=O)=O)cc1S(=O)(=O)Nc1ccc2c(c1)OCO2 | -21 | x | x | 104
Cc1cc2c(cc1S(=O)(=O)N(CC(C)C)CC(C)C)OCC(=O)N2 | 4 | 87 | 95 | 103
CCCCOC(=O)c1cn(CC)c2nc(C)ccc2c1=O | -4 | x | x | 107
CC1Sc2cc(S(=O)(=O)N3CCc4ccccc4C3)ccc2NC1=O (stereo not drawn) | x | 93 | 78 | 102
O=c1[nH]c(CSc2nnc(CCCOc3ccc(Cl)cc3Cl)o2)nc2ccccc12 | -21 | 75 | 96 | 104
Cc1c(S(=O)(=O)c2cccc(Cl)c2)nnn1-c1cccc(C(F)(F)F)c1 | -29 | 116 | 91 | 104
COC(=O)C1=C(C)N(Cc2ccc(OC)cc2)C(=O)/C1=C\c1ccco1 | x | 93 | 104 | 112
COc1ccc(C(=O)Cn2nc(CNc3ccc(Br)cc3)[n+]3c2CCCCC3)cc1 | -14 | 1.4* | 0.2* | x
CCC(=O)Nc1n[nH]c(-c2ccncc2)n1 | -12 | 98 | 78 | 102
CCCN(C(=O)Cn1cc(S(=O)(=O)N2CCN(c3ccccc3F)CC2)c2ccccc2c1=O)c1cccc(C)c1 | 1 | 106 | 89 | 108
COc1ccc(Nc2ccc3cc(S(=O)(=O)N4CCCCC4)ccc3n2)cc1OC | -9 | x | x | 104
COc1cc(O)oc1C=Nc1ccccc1 | -6 | x | x | 108
CCC(=O)N1c2ccccc2CC1C(=O)NCCc1ccccc1C (stereo not drawn) | x | 79 | 94 | 98
O=C(NCCCN1CCCC1=O)c1cc(-c2ccccc2)nc2ccccc12 | -72 | 80 | 87 | x
COc1ccc(NC(=O)CCNS(=O)(=O)c2cccc3nsnc23)cc1Cl | -14 | 109 | 89 | 106
COc1ccc(CNC(=O)CCCc2nnc3n(C(C)C)c(=O)c4sccc4n23)cc1 | x | 101 | 75 | 102
N#C/C(=C\c1ccc(C(F)(F)F)cc1)c1ccc(O)cc1 | -10 | 43 | 39 | 99
CCn1c(=O)c(C)nc2cc(C(=O)NCc3ccc(Cl)cc3)ccc21 | -7 | x | x | 115
CC(NC(=O)CSc1ccc(S(=O)(=O)N(C)C)cn1)c1ccc2c(c1)OCCO2 (stereo not drawn) | 5 | 98 | 97 | x
C/C(=C/C(=O)C(F)(F)F)N1CCN(c2ccccc2F)CC1 | -30 | 80 | 91 | x
Cc1nn(-c2ccccc2)c2nc(-c3ccccc3)cc(C(=O)NC3=NCCS3)c12 | 4 | 108 | 96 | x
CC(C)C(=O)Nc1nnc(SCc2cc(=O)n3ccccc3n2)s1 | x | 92 | 94 | 105
COc1cc(NC(=O)Nc2ccc(Nc3cc(N(C)C)nc(C)n3)cc2)cc(OC)c1 | -14 | x | x | 97
COc1ccc(C2CC(=O)NC3=C2C(=O)CCC3)cc1 (stereo not drawn) | -1 | x | x | 101
O=C(NC1CC(=O)N(c2ccc(F)cc2)C1)c1cccs1 (stereo not drawn) | x | 111 | 87 | 98

Of the compounds above, these have a CF3 group.
smiles | HCMV UL50-53 inh | Sa growth inh | Sa growth inh second temp | GIV-Gai inh
CCOC(=O)c1sc(C)nc1C(F)(F)F | -9 | x | x | 99
Cc1cc(=O)cc(C(F)(F)F)o1 | -19 | 103 | 89 | x
CC1c2ccsc2CCN1C(=O)c1ccc(C(F)(F)F)cc1 (stereo not drawn) | -30 | 107 | 92 | 106
Cc1c(S(=O)(=O)c2cccc(Cl)c2)nnn1-c1cccc(C(F)(F)F)c1 | -29 | 116 | 91 | 104
N#C/C(=C\c1ccc(C(F)(F)F)cc1)c1ccc(O)cc1 | -10 | 43 | 39 | 99
C/C(=C/C(=O)C(F)(F)F)N1CCN(c2ccccc2F)CC1 | -30 | 80 | 91 | x

Further records:
smiles | HCMV UL50-53 inh | Sa growth inh | Sa growth inh second temp | GIV-Gai inh
CCN(CC)S(=O)(=O)c1ccc(Cl)c(C(=O)NCC(C)C)c1 | -1 | 100 | 99 | x
CNC(=O)c1ccc(-c2nc(CN3CCN(C(=O)Nc4ccc(F)cc4)CC3)c(C)o2)cc1 | -19 | x | x | 102
c1ccc(CSC2=NCCS2)cc1 | -5 | 126 | 96 | 102
O=C(NCCN1CCC(Cc2ccccc2)CC1)C(c1ccccc1)N1Cc2ccccc2C1=O (stereo not drawn) | -5 | x | x | 110
CCc1ccc(C2CC(=O)N(c3cccc(C(F)(F)F)c3)C3=C2C(=O)OC3)cc1 (stereo not drawn) | -6 | 87 | 90 | 103
CC1=Nc2ccccc2NC(=O)C1Cc1ccccc1 (stereo not drawn) | -5 | 97 | 59 | x
Cc1cc(N2CCN(c3ccccc3)CC2)n2c(nc3ccccc32)c1C#N | -4 | 100 | 93 | 100
O=c1c2[nH]c3ccc(F)cc3c2ncn1CCN1CCN(Cc2ccccc2)CC1 | 2 | 109 | 80 | 101
Cn1c(SCCC(=O)O)nc2ccccc21 | -14 | 117 | 108 | 103
CCN(CC)S(=O)(=O)c1ccc(NC(=O)[C@@H]2CCCC[C@@H]2C(=O)O)cc1 | 7 | 98 | 92 | 99
O=C(Nc1cccc2c1CCCC2)N1c2ccccc2Sc2ccccc21 | x | 100 | 87 | 104
CC1CN(S(=O)(=O)c2ccc(NC(=O)CCCCCN3C(=O)c4ccccc4C3=O)cc2)CC(C)O1 (stereo not drawn) | -31 | 86 | 81 | 104
Nn1c(-c2ccccc2)cn2c(cc3sccc32)c1=S | -8 | 97 | 69 | 103
OC(CSc1cccc2cccnc12)Cn1c2ccccc2c2ccccc21 (stereo not drawn) | x | 102 | 57 | 99
CCOC(=O)c1ccc(NC(=O)CSc2nc(-c3cccs3)cc(C(F)(F)F)c2C#N)cc1 | -24 | 105 | 86 | 168
COc1ccc2[nH]c(C(=O)NCCCn3ccnc3)cc2c1 | -12 | 96 | 87 | 109
CN(Cc1nc2ccccc2n1C)S(=O)(=O)c1ccc(Cl)cc1 | -37 | 105 | 100 | 107&104
O=C(/C=C/c1ccccc1)NC(O)C(=O)c1ccccc1 (stereo not drawn) | -23 | 89 | 63 | 99
OC(CN1CCC(Cc2ccccc2)CC1)c1ccccc1 (stereo not drawn) | 11 | 98 | 100 | x
CCN1CCN(c2ncnc3sc(C(=O)N4CCC(N5CCCCC5)CC4)c(C)c23)CC1 | -24 | x | x | 102
Cc1ccc(C)c2[nH]c(=O)c(CCNC(=O)C3CCCC3)cc12 | -19 | 93 | 88 | 107
CCc1ccc2nc(N3CCC(C(=O)NCCC(C)C)CC3)sc2c1 | 9 | 131 | 97 | 106
Cc1cc(C)c2nc3s/c(=C/c4cccn4-c4ccc([N+](=O)[O-])cc4)c(=O)n3c2c1 | -1 | x | x | 100
COc1ccc(C2CC(=O)C3=C(C2)Nc2ccccc2NC3c2cccc(F)c2)cc1 (stereo not drawn) | -7 | x | x | 98
Cc1ccc(C)c(N2N=C(C(=O)OCC(=O)NCc3ccco3)CCC2=O)c1 | -14 | 99 | 95 | x
CCn1c(CN(C)Cc2cccc(F)c2)nc2cc(S(=O)(=O)N(C)C)ccc21 | 6 | 89 | 95 | x
CC(C)(C)NC(=S)NC1CC1 | -10 | 86 | 87 | 104
CN1C(=O)C2C=C(C(=O)NCCN3CCC(Cc4ccccc4)CC3)SC2c2ccccc21 (stereo not drawn) | -34 | 102 | 53 | 102
N/C(=N\O)c1cnn2c(C(F)(F)F)cc(C(F)(F)F)nc12 | -103 | 88 | 83 | 108
COC(=O)C(CC(=O)c1ccc(Br)cc1)(Cc1ccc(Br)cc1)C(=O)OC | -19 | 80 | 82 | x
CC1CCN(C(=O)C2CCC(=O)N2S(=O)(=O)c2ccc(F)cc2)CC1 (stereo not drawn) | 13 | x | x | 110
CC(C)Cn1c(=O)c2ccccc2n2c(=O)n(CC(=O)Nc3cc(F)ccc3F)nc12 | 8 | x | x | 96
CCOc1ccc(NC(=O)Cn2nc(Cc3ccncc3)c3ccccc3c2=O)cc1 | -15 | 89 | 100 | 102
O=C(Nc1ncnc2sc3c(c12)CCC3)c1ccccc1 | -13 | 101 | 67 | 102
O=C(O)c1cnn(-c2ccccc2)c1-n1cccc1CNCc1ccc(Cl)cc1 | -31&13 | 120 | 86 | 104&106
CCN(C(=O)c1cc2c(=O)oc3ccc(C)cc3c2s1)c1ccccc1F | -22 | 104 | 91 | 102
Cc1ccc(CNC(=O)c2cc3c(=O)n(Cc4cccnc4)ccc3nc2C)cc1 | x | 91 | 88 | 94
O=C(CC(c1ccccc1)c1ccccc1)Nc1nn[nH]n1 | -37 | 115 | 91 | x
Cc1nn2cnnc2c(C)c1CCC(=O)NC1CCCCC1 | -22&7 | 95 | 83 | 108&107
CCC(C(=O)Nc1ccc2c(c1)nc(CCc1ccccc1)n2C)N1C(=O)COc2ccccc21 (stereo not drawn) | -18 | x | x | 100
Cc1nn(CCC(=O)NCc2ccco2)c(C)c1Cl | 14 | 86 | 99 | 109
Cc1ccc(CNC(=O)C2CCCN(c3nc4c(C)cc(C)cc4s3)C2)cc1 (stereo not drawn) | -29 | 115 | 93 | 106
Cc1[nH]ncc1CNC(=O)c1ccc(Cn2c(=O)c3cccn3c3cccnc32)cc1 | 30 | x | x | 101
Cc1ccc(NC(=O)N2CCN(C(=O)c3nsc4ccccc34)CC2)cc1C | x | 84 | 86 | 101&99

Assay outcomes deposited in PubChem by ICCB-Longwood Screening Facility, Harvard Medical School.
